Screening results deposited in PubChem by Southern Research Institute.
Mtb growth: Mycobacterium tuberculosis H37Rv growth inhibition, putative kinase inhibitor library, confirmatory dose response (AID 2842). M. tuberculosis H37Rv growth inhibition; higher % means a stronger effect; some inactives read as strong as hits. one-dose inhibition, % at 10 µg/mL; IC90 in µg/mL for titrated hits. actives 5.2% (n = 24,000);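 active = confirmed in a dose series; about a fifth of its hits are not listed in these tables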;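 note: bacteria incubated one week before Alamar blue readout; 0% = bacteria only wells and 100% = bacteria with high antibiotic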
* = called active by the depositor. Some of the compounds tested; rates above refer to the full screens.

canonical_smiles	Mtb growth
Nc1nc(SCc2cccc(Cl)c2)[nH]c(=O)c1NC(=O)c1ccc(F)cc1	-6.5%
O=C(CSc1c[nH]c2ccccc12)N1CCN(c2ccccc2)CC1	8.5%
CCN(CC)C(=O)Nc1ccc(NC(C)=O)cc1	-4.0%
Cc1ccc(-c2nnc3ccc(SCC(=O)Nc4ccccc4)nn23)cc1	-2.8%
Cc1ccc(NC(=O)c2ccc(S(=O)(=O)N3CCCCC3)cc2)c(C(=O)c2ccccc2)c1	4.1%
CCc1cccc(OCC(O)Cn2c(N/N=C/c3ccncc3)nc3c2c(=O)n(C)c(=O)n3C)c1 (stereo not given)	1.1%
O=C(Oc1cccc(Nc2ncnc3ccccc23)c1)c1cccnc1	4.9%
Nc1nc(SCC(=O)Nc2nccs2)[nH]c(=O)c1NC(=O)c1ccccc1	-5.5%
O=C(CCN1C(=O)/C(=C\c2ccco2)SC1=S)Nc1nc2ccccc2s1	20.1%
Cc1ccc(Cl)cc1-n1ncc2c(N3CC(C)OC(C)C3)ncnc21 (stereo not given)	20.4%
N#C/C(=C\c1ccccc1)C(=O)Nc1ccc(S(N)(=O)=O)cc1	-0.7%
NC(=O)c1c(NC(=O)c2cc(Cl)sc2Cl)sc2c1CCCCC2	4.2%
CCCSc1nc(N)c(NC(=O)c2ccc(OCC)cc2)c(=O)[nH]1	-8.9%
NC(=O)CSc1nnc(Cc2cc(=O)[nH]c(=O)[nH]2)n1-c1ccc(Cl)cc1	-3.7%
O=C(CC(c1ccccc1)c1ccccc1)Nc1c(C(=O)Nc2ccc([N+](=O)[O-])cc2)oc2ccccc12	0.8%

Molecules listed so far that have an NH in an aromatic ring (5):
canonical_smiles	Mtb growth
Nc1nc(SCc2cccc(Cl)c2)[nH]c(=O)c1NC(=O)c1ccc(F)cc1	-6.5%
O=C(CSc1c[nH]c2ccccc12)N1CCN(c2ccccc2)CC1	8.5%
Nc1nc(SCC(=O)Nc2nccs2)[nH]c(=O)c1NC(=O)c1ccccc1	-5.5%
CCCSc1nc(N)c(NC(=O)c2ccc(OCC)cc2)c(=O)[nH]1	-8.9%
NC(=O)CSc1nnc(Cc2cc(=O)[nH]c(=O)[nH]2)n1-c1ccc(Cl)cc1	-3.7%

(more compounds)
canonical_smiles	Mtb growth
Cc1ccc(S(=O)(=O)Nc2cc3c4c(c2)C(C)C(=O)N4CCC3)cc1 (stereo not given)	33.4%
Cc1ccc(-n2nnc3c(=O)n(Cc4ccc(Br)cc4)cnc32)cc1Cl	-1.2%
Cc1cccc(C)c1NC(=O)/C(C#N)=C/c1ccc(C(C)C)cc1	-5.3%
O=C(Nc1nnc(-c2ccc(F)cc2)s1)c1cccc(F)c1	3.4%
Cn1c(=O)c2c(SCC(=O)Nc3ccc([N+](=O)[O-])cc3)nc(-c3ccco3)nc2n(C)c1=O	-13.5%
O=C(Cc1cccs1)Nc1nnc(-c2cccc([N+](=O)[O-])c2)s1	0.0%
COc1ccc(OC)c2[nH]c(=O)c(CCNC(=O)C3CC3)cc12	2.2%
CC12CC(NC(=O)N1c1ccc3c(c1)OCCO3)c1ccccc1O2 (stereo not given)	-4.5%
CCC(CC)C(=O)NCCc1cc2c(OC)ccc(OC)c2[nH]c1=O	2.3%
Cc1cc(C(=O)N2CCCc3ccccc32)ccc1[N+](=O)[O-]	-8.2%
O=C(NCCO)C(=O)Nc1cc2c3c(c1)CCN3C(=O)CC2	7.6%
N#Cc1c(NC(=O)CSc2nnc3sc4ccccc4n23)sc2c1CCCC2	-1.1%
NC(=O)C1CCN(C2=NC(=O)/C(=C/c3cn(-c4ccccc4)nc3-c3ccncc3)S2)CC1	-9.7%
COc1ccccc1N1C(=O)N(c2cc(C)cc(C)c2)C2CS(=O)(=O)CC21 (stereo not given)	-3.3%
COc1cc([N+](=O)[O-])ccc1NC1=NS(=O)(=O)c2ccccc21	6.5%
COc1ccc(N2C(=O)CC(Sc3ccccc3C(=O)O)C2=O)c(OC)c1 (stereo not given)	-6.7%
COc1ccc2nc(N3CCN(c4ccccc4)CC3)sc2c1	6.7%
O=C(CSc1ccc2nnc(-c3ccc(F)cc3)n2n1)Nc1ccccc1C(F)(F)F	-0.1%
O=C(CSc1nc2[nH]ncc2c(=O)[nH]1)Nc1ccc(Cl)c(Cl)c1	3.8%
O=C(CSc1nnc2ccc(-c3ccncc3)nn12)c1cccs1	-10.8%
COc1ccc(C(=O)Nc2nnc(-c3ccc(F)cc3)s2)cc1OC	5.8%
O=C(Nc1ccc2c(c1)OCCO2)c1oc2ccccc2c1NC(=O)C1CCCCC1	-4.1%
Cc1ccc2cc(CCNC(=O)c3cc(Cl)ccc3Cl)c(=O)[nH]c2c1C	-4.1%
COc1cccc(C(=O)Nc2c(C(=O)Nc3ccc4c(c3)OCCO4)oc3ccccc23)c1OC	-6.9%
Cc1csc2ncc(C(=O)Nc3ccc(Br)cc3F)c(=O)n12	-0.3%
Cc1ccc(-n2nnc3c(=O)n(Cc4cccc(Cl)c4)cnc32)cc1Cl	-10.7%
O=C(Nc1ccc(Cl)cc1)c1ccc(-c2nc3ccccc3s2)s1	5.8%
CN(C)S(=O)(=O)c1ccc2c3c(cccc13)C(=O)N2C(=O)c1ccc([N+](=O)[O-])cc1	-21.8%
COc1cc2c3nnc(-c4ccc(F)cc4)c-3cn(Cc3ccccc3)c2cc1OC	12µg/mL*
O=C(Nc1cccnc1)c1cc(-c2ccncc2)nc2ccccc12	-2.6%
O=C(Nc1nnc(-c2ccc3c(c2)CCCC3)o1)c1ccc([N+](=O)[O-])s1	0.68µg/mL*
O=C(CC1Sc2ccc(C(F)(F)F)cc2NC1=O)Nc1ccc(O)cc1 (stereo not given)	-17.9%
Cc1n[nH]c(=O)nc1Nc1ccc2c(c1)OCCO2	-4.4%
C/C(O)=c1/c(=O)nc2cccc3c2=c1c1ccccc1c3=O	-2.3%
Cc1c(Nc2ncnc(N)c2[N+](=O)[O-])c(=O)n(-c2ccccc2)n1C	-0.6%
O=C(CCc1n[nH]c(=O)[nH]c1=O)N/N=C/CCc1ccccc1	-2.0%
Cn1c(=O)c2c(SCC(=O)Nc3cccc(Cl)c3)ccnc2n(C)c1=O	6.1%
COc1cc(/C=C/C(=O)Nc2nnc(C)s2)cc(OC)c1OC	-10.1%
CC(=O)Nc1ccc(NC(=O)c2cn(C)cc3c(=O)n(-c4ccccc4)nc2-3)cc1	-1.4%
Cc1cnc(=O)[nH]c1SCC(=O)Nc1nccs1	8.3%
O=C(CSc1ncnc2c1oc1ccccc12)Nc1ccccc1	13.0%
N#Cc1ccc(CSc2cnc3ccccc3n2)cc1	2.0%
CCOc1ccc(-n2nnnc2CNS(=O)(=O)c2ccc(F)cc2F)cc1	-2.1%
Cc1ccc(NC(=O)C(=O)NCC2COC3(CCCC3)O2)cc1C (stereo not given)	-4.0%
Cc1ccc(NC(=O)c2oc3ccccc3c2NC(=O)/C=C/c2ccccc2)cc1C	5.1%
Cc1cccc(-n2c(C)c(C)n3c4c(=O)n(CC(N)=O)c(=O)n(C)c4nc23)c1C	16.5%
O=C(Nc1nnc(-c2ccc(Br)cc2)o1)c1cccc(F)c1	83.7%
CC(Sc1ccc2nnc(-c3ccccn3)n2n1)C(=O)O (stereo not given)	-8.6%
COc1cccc(NC(=O)CSc2nnc(-c3ccncc3)n2N)c1	7.8%
Cc1ccc(C2CC(c3c(-c4ccccc4)c4cc(Cl)ccc4[nH]c3=O)=NO2)cc1 (stereo not given)	12.4µg/mL*
COCCn1c(SCCN2CCOCC2)nc2c1c(=O)[nH]c(=O)n2C	-8.6%
CC1(C)Cc2c(sc(NC(=O)c3ccccc3I)c2C(N)=O)C(C)(C)N1	5.4%
COc1cccc(-c2cc(C#N)c(NC(=O)C(C)C)o2)c1	3.9%
CCN(CC)S(=O)(=O)c1ccc(C(=O)Nc2ncnc3sccc23)cc1	54.1%
COc1cccc(Cn2cc3c(-c4ccccc4)nnc-3c3cc4c(cc32)OCCO4)c1	46.0%
Cc1ccc(-c2nc3scc(CCNS(=O)(=O)c4ccc5c(c4)OCCO5)n3n2)cc1	2.6%
CCOC(=O)c1nn(-c2ccc(F)cc2)c(=O)c2c(NC(=O)c3ccc(S(=O)(=O)N(C)C)cc3)scc12	-6.9%
CC1=C(C(N)=O)C(c2ccc(O)cc2)n2ncnc2N1 (stereo not given)	5.3%
O=c1[nH]c(/C=C/c2ccccc2)c([N+](=O)[O-])c(=O)[nH]1	78.5%
COc1ccc(OC)c(NC(=O)c2oc3ccccc3c2NC(=O)C(C)(C)C)c1	-4.8%

Next records follow:
canonical_smiles	Mtb growth
Cn1cc(C(=O)Nc2nccs2)c2nn(-c3ccccc3)c(=O)c-2c1	4.1%
Cc1nc2sc(C(c3cccc(F)c3)N3CCN(C(=O)c4ccco4)CC3)c(O)n2n1 (stereo not given)	4.4%
O=C(Nc1ccc2c(c1)OCCO2)NC1(C(F)(F)F)Oc2ccccc2O1	9.2%
O=c1[nH]c2cc3ccccc3c(=O)n2c2sc3c(c12)CCCC3	-4.1%
Cc1ccc(-c2c3c(nc4sc(C(N)=O)c(N)c24)CCCC3)o1	8.5%
CCOC(=O)C1CCN(C(c2ccc(F)c(F)c2)c2sc3nc(C)nn3c2O)CC1 (stereo not given)	-1.4%
Cc1nc2c(ccc3nc(NC(=O)c4ccc(Cl)cc4Cl)sc32)s1	4.6%
CCOC(=O)c1nn(-c2ccccc2)c(=O)c2c(NC(=O)CCC3CCCCC3)scc12	10.7%
CCS(=O)(=O)c1ccc(C(=O)Nc2nc3cc4c(cc3s2)OCCO4)cc1	-7.8%
COc1ccc(Cc2nnc(NC(=O)Cc3ccc(F)cc3)s2)cc1	-0.6%
O=C(COc1ccccc1)Nc1c(C(=O)Nc2ccc([N+](=O)[O-])cc2)oc2ccccc12	5.2%
CCCCc1ccc2nc(Nc3nc4ccc(S(C)(=O)=O)cc4s3)sc2c1	31.8µg/mL*
COc1ccc(CCNC(=O)CSc2nc(N)c(NC(=O)c3ccc(OC)c(OC)c3)c(=O)[nH]2)cc1OC	-2.0%
O=C(NC1CC(=O)N(c2ccc(F)cc2)C1)c1ccccc1C(F)(F)F (stereo not given)	-5.4%
O=C1NC(c2ccccc2)=C(C(=O)Nc2ccccn2)C(c2ccc(Cl)cc2Cl)N1 (stereo not given)	61.5%
CCCCNc1ncnc2nc[nH]c12	9.7%
COc1ccc(C2=CC(c3ccc(OC)c(OC)c3)n3ncnc3N2)cc1OC (stereo not given)	1.1%
Cc1cc(=S)n2ccccc2n1	-5.7%
Cn1c(=O)c2c(nc(NCCc3ccccc3)n2Cc2ccccc2)n(C)c1=O	7.1%
CCCCC(=O)Nc1nnc(-c2ccc(Cl)cc2)s1	6.9%
Cc1cc(C)cc(NC(=O)CSc2nc3c(c(=O)n2-c2ccc(Cl)cc2)SCC3)c1	-0.3%
O=C(CCCS(=O)(=O)c1ccccc1)Nc1nc2ccc(Br)cc2s1	3.8%
COc1cccc2cc(-c3nnc(Nc4ccccc4F)s3)c(=O)oc12	2.4%
COCCN1C(=O)c2ccc(C(=O)OCC(=O)c3ccc(Cl)cc3)cc2C1=O	3.3%
Cc1ccc(NC(=O)c2sc3nc4c(c(-c5ccco5)c3c2N)CCCCC4)cc1Cl	66.4%
Cn1c(=O)n(CC(N)=O)c(=O)c2c1nc1n(-c3ccc(F)cc3)c(-c3ccccc3)cn21	0.5%
O=C(c1ccccc1Br)N1CCN(c2ccc(N3CCCCC3)nn2)CC1	1.7%
COC(=O)c1cc(Nc2nc(C)nc3sc4c(c23)CCC4)cc(C(=O)OC)c1	5.8%
Cn1c(=O)c2sccc2n2c(CCCC(=O)NCCOc3cccc(C(F)(F)F)c3)nnc12	3.1%
COc1ccc2nc(Nc3nnc(-c4cccs4)o3)sc2c1	58.8%
NC(=O)c1ccc(NC(=O)CSc2nc(N)c(NC(=O)c3ccccc3)c(=O)[nH]2)cc1	-2.2%
COc1cccc(NC(=O)CSc2nnc3ccc(-c4ccncc4)nn23)c1	5.5%
O=C(CCOc1ccccc1)Nc1nc(-c2ccc3c(c2)OCCO3)cs1	20.8%
CCOc1ccc2c(c1)O/C(=C\c1ccc(OC(=O)N3CCOCC3)c(OC)c1)C2=O	-17.6%
Cc1ccccc1C(=O)NNc1ncnc2c1cnn2-c1cc(Cl)ccc1C	4.3%
CC1CCc2sc(NC(=O)c3ccccc3Cl)c(C(N)=O)c2C1 (stereo not given)	-0.4%
COc1ccc(C(=O)Nc2c(N)nc(SCc3cccc([N+](=O)[O-])c3)[nH]c2=O)cc1OC	-5.6%
O=C(CCCc1ccccc1)Nc1c(C(=O)Nc2ccc3c(c2)OCCO3)oc2ccccc12	12.6%
COc1cccc2cc(-c3nnc(-c4ccc([N+](=O)[O-])cc4)o3)c(=O)oc12	-5.9%
O=C1CCCc2oc3ccc(NS(=O)(=O)c4ccc5ccccc5c4)cc3c21	-3.7%
Cc1nc2c(ccc3nc(NC(=O)CCSc4ccccc4)sc32)s1	-4.8%
CC(=O)Nc1ccc2nc(NC(=O)c3ccc(F)cc3)sc2c1	5.8%
Cc1ccc(C(=O)Nc2sc3c(c2C(N)=O)CCCC3)c(C)c1	57.5%
COc1cccc(C(=O)Nc2nnc(-c3ccc(Cl)cc3Cl)s2)c1OC	10.5%
COc1ccc2cc(CCNC(=O)c3cc(C)cc(C)c3)c(=O)[nH]c2c1	-5.3%
COc1ccc(S(=O)(=O)c2c(C(=O)c3ccccc3)cnc3cc4c(cc23)OCCO4)cc1	4.4%
Cn1c(=O)c2c(SCC(=O)NCc3ccc4c(c3)OCO4)nc(-c3ccc([N+](=O)[O-])cc3)nc2n(C)c1=O	-7.3%
